# Screening results: PubChem, Broad Institute
# Yeast UUG start = alters start codon recognition fidelity in yeast; activity score, % at 18.7 µM; AID 602363; 350,000 tested, 0.13% active; S. cerevisiae UUG-firefly luciferase reporter, luminescence/redox ratio;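 active means replicate mean at a twofold rise or more, about +100% in these data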;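 further: firefly luciferase made from a UUG start codon reports start codon fidelity; reporter light over untreated wells divided by growth signal over untreated wells; some hits fall short of that in this replicate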
# Env fusion inh = HIV envelope-mediated fusion inhibition. HeLa-JRFL Env/CEM21 cell fusion, luciferase. inhibition, % at 12.3 µM. 360,000 tested, 1.1% active;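 active means mean replicate inhibition score of at least 50 and every replicate individually at or above 50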;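 further: 0% = plate neutral controls and 100% = maraviroc near 300 nM; one replicate is shown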
# Starred values were filed as active, the others as inactive; [ ] = dose if it differs, or a comment. Only part of the results is shown; the hit share may differ from the screen's.
# Each structure is followed by: Env fusion inh, Yeast UUG start
- C[C@@H]1CN([C@@H](C)CO)C(=O)c2cc(NS(=O)(=O)c3ccccc3)ccc2O[C@@H]1CN(C)S(=O)(=O)c1ccccc1
    -9.5[16.7 µM], 11.5
- C[C@@H]1CN([C@H](C)CO)C(=O)c2cc(C#Cc3ccccn3)cnc2O[C@@H]1CN(C)Cc1ccncc1
    -15.9[16.7 µM], 6.7
- C[C@H](CO)N1C[C@H](C)[C@@H](CN(C)CC2CC2)OCCCC[C@H](C)Oc2ccc(NC(=O)c3ccncc3)cc2C1=O
    -10.6[16.7 µM], 3.6
- C[C@@H]1CCCCO[C@H](CN(C)C(=O)Cc2ccccc2)[C@@H](C)CN([C@H](C)CO)C(=O)c2cc(NC(=O)Nc3cccc4ccccc34)ccc2O1
    -20.3[16.7 µM], 33.6
- C[C@@H]1CN([C@H](C)CO)C(=O)c2cc(Br)cnc2O[C@@H]1CN(C)C(=O)c1ccc(F)cc1
    -15.9[16.7 µM], 5.3
- Cc1ccccc1S(=O)(=O)NCC[C@@H]1CC[C@H](NC(=O)C2CCCCC2)[C@H](CO)O1
    3.9[16.7 µM], 9.0
- COc1ccc(NC(=O)Nc2ccc3c(c2)C(=O)N([C@H](C)CO)C[C@@H](C)[C@H](CN(C)S(=O)(=O)c2ccc(F)cc2)OCCCC[C@H](C)O3)cc1
    -4.0[16.7 µM], -14.7
- C[C@@H]1CCCCO[C@H](CN(C)C(=O)Nc2ccc3c(c2)OCO3)[C@H](C)CN([C@H](C)CO)C(=O)c2cc(NC(=O)NC3CCCCC3)ccc2O1
    7.2[16.7 µM], -4.4
- COc1ccc(NC(=O)Nc2ccc3c(c2)C(=O)N([C@H](C)CO)C[C@@H](C)[C@H](CN(C)C(=O)Nc2ccccc2)OCCCC[C@@H](C)O3)cc1
    -8.7[16.7 µM], 4.9
- COc1ccc(S(=O)(=O)N(C)C[C@@H]2OCCCC[C@@H](C)Oc3ccc(NC(=O)Nc4ccc(C(F)(F)F)cc4)cc3C(=O)N([C@H](C)CO)C[C@H]2C)cc1
    16.7[16.7 µM], -18.3
- COc1ccc(NC(=O)N(C)C[C@H]2OCCCC[C@@H](C)Oc3ccc(NC(=O)C4CCCCC4)cc3C(=O)N([C@H](C)CO)C[C@@H]2C)cc1
    -2.3[16.7 µM], 4.4
- C[C@@H]1CCCCO[C@@H](CN(C)S(=O)(=O)c2cccs2)[C@@H](C)CN([C@@H](C)CO)C(=O)c2cc(NC(=O)Nc3ccc4c(c3)OCO4)ccc2O1
    18.1[16.7 µM], -19.0
- CCCC#Cc1cnc2c(c1)C(=O)N([C@H](C)CO)C[C@@H](C)[C@H](CN(C)Cc1ccncc1)O2
    -1.9[16.7 µM], -4.8
- C[C@H](CO)N1C[C@H](C)[C@H](CN(C)Cc2ccc(Cl)c(Cl)c2)OCCCC[C@H](C)Oc2ccc(NS(=O)(=O)c3ccc(F)cc3)cc2C1=O
    88.5*[16.7 µM], 15.5
- C[C@@H]1CCCCO[C@H](CN(C)S(=O)(=O)c2cn(C)cn2)[C@H](C)CN([C@@H](C)CO)C(=O)c2cc(NC(=O)Nc3ccc(C(F)(F)F)cc3)ccc2O1
    -4.6[16.7 µM], -17.0
- C[C@H](CO)N1C[C@H](C)[C@H](CN(C)S(=O)(=O)c2ccc(F)cc2)Oc2c(NS(C)(=O)=O)cccc2C1=O
    -41.8[16.7 µM], 0.7
- C[C@H](CO)N1C[C@H](C)[C@@H](CN(C)CC2CCCCC2)Oc2ccc(NS(C)(=O)=O)cc2CC1=O
    6.8[16.7 µM], 2.1
- COc1ccc(NC(=O)N(C)C[C@H]2Oc3ccc(NC(=O)C4CC4)cc3C(=O)N([C@H](C)CO)C[C@H]2C)cc1
    8.6[16.7 µM], -9.1
- COc1ccc(S(=O)(=O)N(C)C[C@H]2Oc3ccc(NC(=O)NC4CCCCC4)cc3CC(=O)N([C@H](C)CO)C[C@H]2C)cc1
    -14.5[16.7 µM], 4.1
- C[C@H]1CN([C@@H](C)CO)C(=O)Cc2cc(NC(=O)CCCN(C)C)ccc2O[C@H]1CN(C)S(=O)(=O)c1ccc(F)cc1
    4.6[16.7 µM], 15.1
- C[C@@H]1CN([C@H](C)CO)C(=O)Cc2cc(NC(=O)Nc3ccc4c(c3)OCO4)ccc2O[C@H]1CN(C)S(C)(=O)=O
    -19.3[16.7 µM], 12.3
- C[C@H]1CCCCO[C@H](CN(C)S(=O)(=O)c2cccs2)[C@@H](C)CN([C@@H](C)CO)C(=O)c2cc(NC(=O)C3CCCCC3)ccc2O1
    -149.0[16.7 µM], 2.1
- COc1ccc(CN(C)C[C@H]2Oc3ccc(NC(=O)C4CC4)cc3CC(=O)N([C@@H](C)CO)C[C@@H]2C)cc1
    -2.9[16.7 µM], -2.1
- Cc1noc(C)c1NC(=O)Nc1ccc2c(c1)C(=O)N([C@@H](C)CO)C[C@@H](C)[C@H](CN(C)CC1CCCCC1)OCCCC[C@H](C)O2
    16.5[16.7 µM], 21.0
- C[C@@H]1CN([C@H](C)CO)C(=O)c2cccc(NC(=O)C3CCOCC3)c2O[C@H]1CN(C)Cc1ccncc1
    8.1[16.7 µM], -18.5
- COc1ccc(NC(=O)N(C)C[C@@H]2Oc3ccc(NS(=O)(=O)c4ccc(OC)cc4)cc3C(=O)N([C@H](C)CO)C[C@H]2C)cc1
    9.4[16.7 µM], -4.5
- C[C@@H]1CN([C@H](C)CO)C(=O)Cc2cc(NC(=O)C3CCCCC3)ccc2O[C@H]1CN(C)S(=O)(=O)c1ccc(Cl)cc1
    18.8[16.7 µM], 13.8
- O=C(CN1CCOCC1)NCC[C@H]1CC[C@H](NC(=O)Nc2ccc(C(F)(F)F)cc2)[C@@H](CO)O1
    7.8[16.7 µM], -2.3
- Cc1ccccc1S(=O)(=O)N[C@@H]1CC[C@@H](CCn2cc(-c3ccccc3)nn2)O[C@@H]1CO
    21.3[16.7 µM], -3.0
- Cc1ccc(S(=O)(=O)N(C)C[C@@H]2Oc3c(NC(=O)c4ccncc4)cccc3C(=O)N([C@H](C)CO)C[C@@H]2C)cc1
    -50.4[16.7 µM], -3.8
- COC(=O)C[C@H]1CC[C@@H]2[C@H](COc3ccc(NC(=O)c4cc(F)cc(F)c4)cc3C(=O)N2C)O1
    18.3[16.7 µM], 2.2
- O=C(C[C@H]1C[C@@H]2c3cc(NC(=O)Nc4ccc(C(F)(F)F)cc4)ccc3O[C@@H]2[C@H](CO)O1)NCC1CC1
    5.0[16.7 µM], 0.0
- CCCN(C)C[C@@H]1Oc2cc(C#CC3CCCC3)ccc2S(=O)(=O)N([C@@H](C)CO)C[C@@H]1C
    9.3[16.7 µM], 3.3
- C[C@@H]1CN([C@@H](C)CO)C(=O)c2cccc(NC(=O)Nc3ccc4c(c3)OCO4)c2O[C@@H]1CN(C)Cc1ccccc1
    0.6[16.7 µM], 14.7
- C[C@H]1CCCCO[C@@H](CN(C)C(=O)Nc2ccc(F)cc2)[C@@H](C)CN([C@@H](C)CO)C(=O)c2cc(NS(=O)(=O)c3ccc(Cl)cc3)ccc2O1
    -108.5[16.7 µM], -8.9
- COc1cccc(NC(=O)Nc2ccc3c(c2)C(=O)N(C)[C@H]2CC[C@H](CC(=O)O)O[C@@H]2CO3)c1
    -0.1[16.7 µM], -1.4
- COc1ccccc1-c1cnc2c(c1)C(=O)N([C@H](C)CO)C[C@@H](C)[C@@H](CN(C)Cc1ccccc1)O2
    -5.3[16.7 µM], -6.3
- C[C@@H]1CN([C@H](C)CO)C(=O)c2cc(C#Cc3cccnc3)cnc2O[C@H]1CN(C)C
    -29.5[16.7 µM], -21.0
- O=C(C[C@@H]1CC[C@@H](NC(=O)c2ccc(F)cc2)[C@@H](CO)O1)NCCc1ccncc1
    4.7[16.7 µM], -21.5
- C[C@@H]1CCCCO[C@H](CN(C)C(=O)Nc2ccc(F)cc2)[C@H](C)CN([C@@H](C)CO)C(=O)c2cc(NC(=O)c3ccncc3)ccc2O1
    39.1[16.7 µM], -6.9
- O=C(C[C@@H]1CC[C@@H](NC(=O)c2ccccn2)[C@H](CO)O1)NCc1cccc(F)c1
    -5.0[16.7 µM], -10.0
- CNC[C@H]1OCCCC[C@H](C)Oc2ccc(NC(=O)c3ccccc3)cc2C(=O)N([C@H](C)CO)C[C@@H]1C
    13.2[16.7 µM], 0.2
- C[C@H](CO)N1C[C@H](C)[C@@H](CN(C)C(=O)Nc2ccc(F)cc2)Oc2ccc(NC(=O)Nc3ccc(F)cc3)cc2CC1=O
    -10.8[16.7 µM], -0.3
- COC(=O)C[C@@H]1CC[C@@H]2[C@@H](COc3ccc(NC(=O)NC(C)C)cc3C(=O)N2C)O1
    18.2[16.7 µM], -6.0
- C[C@@H]1CN([C@@H](C)CO)C(=O)c2cc(NS(=O)(=O)c3ccc(Cl)cc3)ccc2O[C@@H](C)CCCCO[C@H]1CN(C)S(=O)(=O)c1ccc(Cl)cc1
    -126.8[16.7 µM], -9.9
- Cc1noc(C)c1NC(=O)Nc1ccc2c(c1)C(=O)N([C@@H](C)CO)C[C@H](C)[C@@H](CN(C)Cc1ccc3c(c1)OCO3)OCCCC[C@@H](C)O2
    5.4[16.7 µM], 4.3
- CCC(=O)Nc1ccc2c(c1)C(=O)N(C)[C@H]1CC[C@H](CC(=O)NCC3CCCCC3)O[C@@H]1CO2
    -7.4[16.7 µM], 8.7
- Cc1ccc(S(=O)(=O)Nc2cccc3c2O[C@@H](CN(C)Cc2ccc(Oc4ccccc4)cc2)[C@H](C)CN([C@@H](C)CO)C3=O)cc1
    -16.0[16.7 µM], -7.2
- CCC(=O)N(C)C[C@@H]1Oc2cc(-c3ccccc3C)ccc2S(=O)(=O)N([C@H](C)CO)C[C@@H]1C
    14.2[16.7 µM], -2.7
- C[C@@H]1CCCCO[C@H](CN(C)C(=O)NC2CCCCC2)[C@@H](C)CN([C@H](C)CO)C(=O)c2cc(NC(=O)NC3CCCCC3)ccc2O1
    4.2[16.7 µM], -5.2
- COCC(=O)N1[C@H](CO)[C@H](c2ccc(-c3cccc(F)c3)cc2)[C@@H]1C#N
    -12.5[16.7 µM], -8.8
- CN(C)CCCNC(=O)C[C@@H]1CC[C@H]2[C@@H](COC[C@@H](O)CN2CC2CCCC2)O1
    -5.1[16.7 µM], -10.3
- COc1ccc(CN(C)C[C@H]2OCCCC[C@H](C)Oc3ccc(NC(=O)Nc4ccc(C(F)(F)F)cc4)cc3C(=O)N([C@H](C)CO)C[C@H]2C)cc1
    30.6[16.7 µM], 1.3
- C[C@H]1CN([C@@H](C)CO)C(=O)Cc2cc(NC(=O)Nc3ccc(C(F)(F)F)cc3)ccc2O[C@H]1CN(C)C(=O)Nc1ccc(F)cc1
    -24.3[16.7 µM], -3.5
- COc1ccc(S(=O)(=O)N(C)C[C@@H]2OCCCC[C@H](C)Oc3ccc(NS(=O)(=O)c4ccccc4)cc3C(=O)N([C@H](C)CO)C[C@@H]2C)cc1
    -12.8[16.7 µM], 1.6
- O=C(C[C@H]1C=C[C@H](NC(=O)Nc2ccccc2)[C@@H](CO)O1)NCc1ccccn1
    27.2[16.7 µM], -8.4
- COc1ccc(-c2cn(CC[C@@H]3CC[C@@H](NS(=O)(=O)c4ccccc4C)[C@@H](CO)O3)nn2)cc1
    -3.6[16.7 µM], -13.5
- COc1ccc(S(=O)(=O)Nc2ccc3c(c2)C(=O)N([C@H](C)CO)C[C@H](C)[C@H](CN(C)S(=O)(=O)c2ccc(C)cc2)O3)cc1
    20.8[16.7 µM], -6.7
- Cc1noc(C)c1S(=O)(=O)N(C)C[C@@H]1OCCCC[C@@H](C)Oc2ccc(NC(=O)Cc3ccccc3)cc2C(=O)N([C@@H](C)CO)C[C@H]1C
    -38.7[16.7 µM], -1.5
- O=C(Nc1ccc2c(c1)OCO2)N[C@@H]1CC[C@H](CCNC(=O)C2CCOCC2)O[C@H]1CO
    -2.3[16.7 µM], 2.8

# Further compounds follow:
# Each structure is followed by: Env fusion inh, Yeast UUG start
- COCC(=O)Nc1ccc2c(c1)[C@H]1C[C@H](CC(=O)N3CCCCC3)O[C@H](CO)[C@H]1O2
    4.1[16.7 µM], 7.6
- COc1ccc(S(=O)(=O)N(C)C[C@@H]2OCCCC[C@H](C)Oc3ccc(NC(=O)Nc4ccccc4)cc3C(=O)N([C@H](C)CO)C[C@@H]2C)cc1
    -20.6[16.7 µM], -2.7
- CO[C@H]1CN(C)C(=O)c2cc(NS(C)(=O)=O)ccc2OC[C@H](C)N(Cc2nccs2)C[C@H]1C
    9.5[16.7 µM], 9.3
- CO[C@H]1O[C@H](CO)[C@@H](OC(=O)c2ccc(Br)cc2)[C@H](OC(=O)c2cc3ccccc3[nH]2)[C@H]1OC(=O)c1cc2ccccc2[nH]1
    3.5[16.7 µM], 6.7
- CCCC#Cc1cnc2c(c1)C(=O)N([C@@H](C)CO)C[C@@H](C)[C@@H](CN(C)C(=O)Nc1ccccc1OC)O2
    -73.4[16.7 µM], 56.8
- C[C@@H]1CN([C@H](C)CO)C(=O)Cc2cc(NC(=O)CCN3CCOCC3)ccc2O[C@@H]1CN(C)C(=O)Nc1ccc2c(c1)OCO2
    -28.7[16.7 µM], -2.7
- C[C@H](CO)N1C[C@H](C)[C@H](CN(C)Cc2ccc(C(F)(F)F)cc2)Oc2ccc(NS(=O)(=O)c3cn(C)cn3)cc2CC1=O
    13.9[16.7 µM], -14.1

# By substructure: those above with bromine
# Each structure is followed by: Env fusion inh, Yeast UUG start
- C[C@@H]1CN([C@H](C)CO)C(=O)c2cc(Br)cnc2O[C@@H]1CN(C)C(=O)c1ccc(F)cc1
    -15.9[16.7 µM], 5.3
- CO[C@H]1O[C@H](CO)[C@@H](OC(=O)c2ccc(Br)cc2)[C@H](OC(=O)c2cc3ccccc3[nH]2)[C@H]1OC(=O)c1cc2ccccc2[nH]1
    3.5[16.7 µM], 6.7
